# Source: PubChem
# CDC25B-CDK2 inh – human CDC25B-CDK2/CyclinA binding inhibition | AID 1259370 | z-score (test concentration not listed) | 94,000 tested, 0.72% active | HTRF CDC25B-CDK2/CyclinA binding, anti-His/anti-Flag; stronger effect = higher value;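 also: score is relative to mean and SD of negative controls; strong numbers were not always called active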
# TAR Tat displ – HIV-1 TAR-Tat binding disruption. HIV-1 TAR RNA, Tat peptide displacement FRET; stronger effect = higher value. z-score (concentration not given with the values). 100,000 tested, 0.6% active. AID 1259389;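 also: score is relative to mean and SD of negative controls; some compounds called inactive have numbers as strong as hits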
# Active calls of the source: *; . = no result given.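 The calls were made as follows: active = z-score from 3 up in half or more of its runs; inactive = the rest.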
# Second line of a record: CDC25B-CDK2 inh	TAR Tat displ
CN1C(=O)c2ccccc2Sc2cc(NC(=O)C3CC(=O)N(c4cccc(Cl)c4)C3)ccc21 (configuration not stated)
  .	2.4
CCSc1nnc2n(CC)c3ccccc3n12
  -0.62	1.1
Cc1sc2ncc(C(N)=O)c(=O)n2c1C
  -2.6	0.08
O=C(NC1CCCC1)c1sc(=S)n2c1[nH]c(=O)c1ccccc12
  .	3.2
COc1ccc(OC(=O)CSc2nnc(-c3ccc(F)cc3)o2)cc1
  -1.9	0.22
COc1cc(OC)c(N(C)C(=O)Nc2cn(C)c(=O)c3ccccc23)cc1Cl
  .	0.57
O=C(NCC(c1ccco1)S(=O)(=O)c1ccc(F)cc1)C(=O)NC1CCCC1 (configuration not stated)
  .	1.8
CCCc1nc2nc[nH]n2c(=O)c1NS(=O)(=O)c1ccc(OC)cc1
  -2.2	0.24
O=C(C1CCN(c2ccc(-c3cccs3)nn2)CC1)N1CCN(c2ccccc2)CC1
  .	0.32
O=C(CCC(=O)N1CC=C(c2c[nH]c3ccccc23)CC1)NC1CCCCC1
  .	-0.56
O=c1c(N2CCN(c3ccccc3Cl)CC2)csc2ccc(F)cc12
  .	1
Cc1nn(-c2ccc(N3CCOCC3)nn2)c(C)c1CCC(=O)N1CCN(C)CC1
  .	-1.3
CN(c1nnc(NC(=O)Nc2ccccc2Cl)s1)C1CCCCC1
  -0.46	1.5
CC(CC(=O)O)Oc1ccc(Cl)cc1[N+](=O)[O-] (configuration not stated)
  -0.63	.
Cc1cc(OCCCCCn2ccnc2)cc(C)c1Cl
  -1.2	0.93
Cc1nn2c(-c3ccco3)ccnc2c1-c1ccc(Cl)cc1
  -1.6	0.78
O=C(NCC(c1cccs1)S(=O)(=O)c1ccc(Cl)cc1)c1ccco1 (configuration not stated)
  .	-0.09
Cc1ccc(NS(=O)(=O)c2ccc(-n3cccn3)cc2)cc1N(C)C
  .	0.77
CSCCC1Oc2ccccc2C2CC(c3ccccc3O)=NN12 (configuration not stated)
  0.57	-0.6
Cc1nn(S(C)(=O)=O)c(C)c1S(=O)(=O)N1CCC(C)CC1
  .	-0.06
Cn1c(=O)n(Cc2ccccc2F)c(=O)c2c1nc1n2CCN1c1ccc(F)cc1
  .	2.2
Cc1cccc2c1Oc1nc(-c3ccc(F)cc3)[nH]c(=O)c1C2
  -0.99	1.6
O=C(c1ccc(S(=O)(=O)N2CCCc3ccccc32)s1)N1CCCC1
  .	1.2
Cc1cc2c(s1)CCc1cc(C(=O)N3CCN(c4ccc(F)cc4)CC3)sc1-2
  .	1.2
COc1cc2c(cc1NC(=O)CCN1C(=O)c3ccccc3C1=O)oc1ccccc12
  -4.2	.
CCN(CC)c1ccc(CN(C(=O)Cc2coc3ccc(C)cc23)C2CCS(=O)(=O)C2)cc1 (configuration not stated)
  0.15	-0.05
CNC(=O)c1ccc(N2CCCc3ccccc32)s1
  .	0.45
Cc1ccc(/C(O)=C2/C(=O)C(=O)N(CCCN3CCOCC3)C23C(=O)N(C)c2ccccc23)cc1 (configuration not stated)
  1.4	-0.19
O=C(O)C1CSC(c2ccoc2)N1 (configuration not stated)
  -0.51	-0.23
Cc1onc(-c2c(F)cccc2Cl)c1C(=O)N=S(C)(C)=O
  -2.3	.
CCN1CCN(c2nc(Nc3ccc(Cl)cc3)c3cnn(C)c3n2)CC1
  .	0.6
Clc1cccc(CNc2ncnc3c2cnn3-c2ccccc2)c1
  .	1.5
CCCOc1cc(C)c(S(=O)(=O)n2cnc3ccccc32)cc1C
  0.35	0.09
CN(C)c1ccc(/C=N/NC(N)=S)cc1C#N
  -1.8	.
CCCCC(O)(c1ccccc1)C(CN1CCOCC1)c1ccccc1 (configuration not stated)
  -2	1.1
Cc1ccc(-c2noc3ncnc(NC(C)C)c23)cc1
  .	2.6
COC(=O)c1ccc2c(c1)NC(C)CO2 (configuration not stated)
  .	1
Clc1cccc(CNCCSc2nnnn2-c2ccccc2)c1
  0.52	0.05
CCc1ccc(C2NC(=O)NC(C)=C2C(=O)OC)cc1 (configuration not stated)
  0.52	.
COc1ccc(C2c3[nH]c4ccc(OC)cc4c3CCN2C(=O)NC2CCCC2)cc1 (configuration not stated)
  .	-1.2
CCN1CCN(C(=O)c2cc3c(s2)-c2ccsc2CC3)CC1
  .	0.73
CC(C)CCn1c(=O)c2sccc2n2c(CCCC(=O)NC3CCC(C)CC3)nnc12 (configuration not stated)
  .	-1.9
CC1(C)Cc2c(c(N3CCOCC3)nc3sc(C(=O)c4ccccc4)c(N)c23)CS1
  -1.1	0.81
CCN(CC)c1ccc(NC(=O)Cn2cc3c(n2)CCC(C)C3)c(C)c1 (configuration not stated)
  -2.1	.
CN1C(=O)C2(c3ccccc31)C(C(=O)Nc1ccc3c(c1)OCCO3)CC1CCCN12 (configuration not stated)
  .	0.21
COC(=O)c1cccc(CSc2nc3ccccc3[nH]2)c1
  -0.41	.
O=c1sc2ccccc2n1Cc1nnc(SCc2cccnc2)n1CCc1ccccc1
  -1.4	.
COc1ccccc1-c1nnc2sc(-c3ccco3)nn12
  2.5	1.7
O=C1CSc2ccc(C(=O)NCC3CCCO3)cc2N1 (configuration not stated)
  .	2
Cc1ccc(-c2noc(CC3CCCCC3)n2)cc1
  -0.82	1.1
CSc1ccc(NC(=O)NCCCN2CCc3ccccc3C2)cc1
  0.37	-0.99
Cc1ccc(-c2noc(-c3nnn(-c4cc(F)ccc4F)c3C)n2)cc1
  .	1.1
O=C1CCN=C(N(C(=O)c2ccco2)c2ccc(F)c(Cl)c2)S1
  -0.72	.
O=C(O)CNc1nc2ncn(Cc3ccccc3)c2c(=O)[nH]1
  -0.59	.
CC[C@@]1([C@@H]2O[C@@H]([C@H]3O[C@@](O)(CO)[C@H](C)C[C@@H]3C)C[C@@H]2C)CC[C@H]([C@]2(C)CC[C@]3(C[C@H](O)[C@@H](C)[C@@H]([C@@H](C)[C@@H](OC)C(C)C(=O)O)O3)O2)O1 (some centres not stated)
  .	1.5
CCC(C(=O)NC1CCCCC1C)n1nc(C)n2c(cc3sccc32)c1=O (configuration not stated)
  -1.3	-0.62
CCCN1C(=O)C(O)(CC(=O)c2ccc(Cl)cc2)c2cc(Br)ccc21 (configuration not stated)
  -1.6	.
CCCc1nc(SC)[nH]c(=O)c1C
  -0.94	.
CCCN(CCC)S(=O)(=O)c1ccc(C(=O)O/N=C(\C)c2ccccc2O)cc1
  -1.5	.
CC1(C)O[C@H]2[C@H](O)C[C@](O)(C(N)=O)C[C@H]2O1
  .	1.4

# Four entries already listed, sorted by number of heavy atoms, smallest number first:
# Second line of a record: CDC25B-CDK2 inh	TAR Tat displ
O=C(O)CNc1nc2ncn(Cc3ccccc3)c2c(=O)[nH]1
  -0.59	.
O=c1c(N2CCN(c3ccccc3Cl)CC2)csc2ccc(F)cc12
  .	1
COc1cc2c(cc1NC(=O)CCN1C(=O)c3ccccc3C1=O)oc1ccccc12
  -4.2	.
CCN(CC)c1ccc(CN(C(=O)Cc2coc3ccc(C)cc23)C2CCS(=O)(=O)C2)cc1 (configuration not stated)
  0.15	-0.05

# The listing continues.
# Second line of a record: CDC25B-CDK2 inh	TAR Tat displ
CC(=O)C1C(c2ccncc2)NC(=O)NC1(O)C(F)(F)F (configuration not stated)
  -0.52	.
CCOc1ccc(-c2noc(-c3ccc[nH]c3=O)n2)cc1OC
  -0.63	0.73
CC1(C)CC(=O)C2=C(C1)OC(N)=C(C#N)C21C(=O)c2ccccc2C1=O
  -1.9	.
Cc1ccc(C2CC(=O)C=C(Nc3n[nH]c(C)c3-c3ccccc3)C2)cc1 (configuration not stated)
  0.3	1.3
CCCCN(c1ccccc1)S(=O)(=O)c1cc2c3c(c1)C(C)C(=O)N3CCC2 (configuration not stated)
  .	1.9
O=C1CC(N2CCN(c3cccc(Cl)c3)CC2)C(=O)N1c1cccc(Cl)c1 (configuration not stated)
  -0.6	0.21
CCCN1C(=O)c2ccccc2NC1c1ccc(OC)c(CN2CCOCC2)c1 (configuration not stated)
  0.89	.
CCCSc1nc2c(c(=O)[nH]1)C(c1ccccc1)C(C(=O)OC(C)C)=C(C)N2 (configuration not stated)
  -0.67	0.35
O=C(Cn1nc(Cc2ccncc2)c2ccccc2c1=O)NCCC1=CCCCC1
  -2.1	3.4
CCCNC(=O)Cn1nc2n(CC(C)C)c(=O)c3sccc3n2c1=O
  -2.1	1.6
O=C(Cn1c(-c2cccs2)cc2ccccc21)NCCc1cccs1
  .	1.2
Cc1ccc(C(=O)Nc2ccc(N3CCOCC3)nc2N2CCOCC2)cc1
  -0.71	.
CCN1CCN(c2nc(N3CCN(CCO)CC3)nc3c2cnn3C)CC1
  .	0.96
O=S1(=O)Cc2ccc(NS(=O)(=O)c3ccc(Br)s3)cc2C1
  0.19	.
CCOC(=O)Cc1cc(=O)n2[nH]cnc2n1
  0.93	0.71
CCCNC(=O)C1CCC(Cn2c(=O)c3sccc3n(CC)c2=O)CC1 (configuration not stated)
  .	-1.4
Cn1c2ccccc2c2c(C(=O)N3CCN(c4ccccc4F)CC3)cn(C3CCCCC3)c(=O)c21
  -2.9	.
Cc1ccc(N2C(=O)c3cccnc3C2Nc2cc(C)ccc2C)cc1 (configuration not stated)
  -1.4	2.5
Cn1c(=O)cc(N)n(-c2ccccc2)c1=O
  -1.1	0.14
COc1cccc(OC)c1C(=O)NCCc1ccccc1
  -2.1	.
CCOC(=O)c1cc(C(C)(C)C)n(CCCN2CCOCC2)c1C
  -2	.
Cc1c(CCNS(=O)(=O)c2cccs2)sc2nc(-c3ccc(F)cc3)nn12
  .	1.4
COc1cc(C2CC(=O)Nc3c2c(=O)nc(SC)n3C)ccc1OCC(N)=O (configuration not stated)
  0.15	1.1
CCSc1nc(=O)c2c(n1C)NC(=O)CC2c1cccc(O)c1 (configuration not stated)
  -0.92	-0.7
O=C(C1CCN(c2ncnc3c2nc2n3CCCCC2)CC1)N1CCc2ccccc21
  .	1.4
COC(=O)c1ccc(/C=N/Nc2ncccc2[N+](=O)[O-])n1-c1ccc(F)cc1
  -1.4	.
Cc1csc2nc(NC(=O)c3ccccc3)sc(=O)c12
  -1.3	.
Cc1ccc(-c2cnc(C3CC3)o2)cc1S(=O)(=O)N1CCc2ccccc2C1
  .	0.84
Cc1cc(NCc2ccc3c(c2)OCO3)ccc1Br
  -1.5	1.4
CC(C)CC(=O)Nc1ccc2c(c1)CC(=O)N2C
  .	0.75

# 7 entries from above, with tabs.
mol	CDC25B-CDK2 inh	TAR Tat displ
Cc1c(CCNS(=O)(=O)c2cccs2)sc2nc(-c3ccc(F)cc3)nn12	.	1.4
COc1cc(C2CC(=O)Nc3c2c(=O)nc(SC)n3C)ccc1OCC(N)=O (configuration not stated)	0.15	1.1
CCSc1nc(=O)c2c(n1C)NC(=O)CC2c1cccc(O)c1 (configuration not stated)	-0.92	-0.7
O=C(C1CCN(c2ncnc3c2nc2n3CCCCC2)CC1)N1CCc2ccccc21	.	1.4
COC(=O)c1ccc(/C=N/Nc2ncccc2[N+](=O)[O-])n1-c1ccc(F)cc1	-1.4	.
Cc1csc2nc(NC(=O)c3ccccc3)sc(=O)c12	-1.3	.
Cc1ccc(-c2cnc(C3CC3)o2)cc1S(=O)(=O)N1CCc2ccccc2C1	.	0.84

# New compounds follow:
# Second line of a record: CDC25B-CDK2 inh	TAR Tat displ
CS(=O)(=O)CC[C@@H](C(=O)Nc1cc(F)ccc1F)N1Cc2ccccc2C1=O
  -1.8	2.7
CN1C(=O)C(C)(C)c2cc(S(=O)(=O)NCCCN3CCc4ccccc4C3)ccc21
  .	0.28
CCOCCCNc1nc2ccccc2c2nc(CCn3c(C)nc4ccccc43)nn12
  0.09	0.07
Cc1nc2sccn2c(=O)c1S(=O)(=O)NCc1ccccn1
  .	-1.9
CCCC(=O)Nc1c(O)c2ccccc2[nH]c1=O
  .	2.7
O=C(CSc1ccc2nnc(-c3ccccn3)n2n1)c1ccccc1
  .	1.8
CCS(=O)(=O)NCCc1csc2nc(-c3ccc(OC)cc3)nn12
  .	0.99
COc1ccc(Cc2nc(-c3ccc(OCC(C)C)cc3)n[nH]c2=O)cc1
  .	1.2
CCOc1ccc2ncc(S(=O)(=O)c3ccccc3)c(N3CCN(C)CC3)c2c1
  -1.5	0.61
O=C1CN(c2ccc(OC(F)(F)F)cc2)C(=O)CN1CC1CC1
  -1.4	.
Cn1c(SCc2nc3ccccc3n2CC(N)=O)nc2ccccc21
  -2	.
Cn1c(=O)c(=O)n(CC(=O)NCCCN2CCCC2=O)c2ccccc21
  .	0.16
CC(=O)N1N=C(c2cc(-c3ccccc3)n[nH]2)OC1c1ccccc1Cl (configuration not stated)
  .	-0.25
COC(=O)c1cc2sccc2n1CC(=O)N(C)c1ccc(F)cc1
  -1.2	1.2
Fc1ccc(NC(=S)Nc2ccc(F)cc2F)c(F)c1
  -1.1	.
CCCOC(=O)C(CC)Oc1ccc2c(=O)c(Oc3ccccc3Br)coc2c1 (configuration not stated)
  -0.42	1.9
CCCCC(=O)Oc1ccc2oc(-c3ccc(OC)cc3)cc(=O)c2c1
  -0.29	0.76
NC1C=CC=C(C(=O)O)C1 (configuration not stated)
  0.99	.
COc1cc2c(=O)oc(-c3cccnc3Oc3ccccc3)nc2c(OC)c1OC
  -1.5	.
COC(=O)CCCOc1ccc(Cl)cc1Cl
  .	0.01
CN1CCN(C(=O)c2cnn3c(C(F)(F)F)cc(-c4ccco4)nc23)CC1
  0.57	0.29
O=C(c1ccco1)N1CCN(S(=O)(=O)c2cc(-c3noc(C4CC4)n3)cs2)CC1
  .	1.9
O=C1c2ccccc2C(O)(Cc2ccccc2)N1CCCN1CCOCC1 (configuration not stated)
  -0.71	.
CCSc1nc2c(c(=O)[nH]1)C(c1ccc(C)o1)C(C(=O)OC)=C(C)N2 (configuration not stated)
  0.38	.
